Assay outcomes from PubChem.
2A StopGo: FMDV 2A StopGo reporter, luciferase signal | AID 1159524 | Potency, µM (top dose mostly 57.9 µM), without a hit: at the top dose signal change, negative = less light | human cells with a luciferase reporter of 2A StopGo recoding; control for the full effect not named in the record | 410,000 compounds, 1.2% hits; active = well fitted falling curve with a large enough effect; inconclusive = small, poorly fitted or top-dose-only effect; inactive = no such curve, though single readings can be large or run the other way; tested in HEK293T cells; note: nearly all actives have a fitted effect of over 45% in size; luciferase light after 4 h
RE007 growth inh: less growth of the S. pombe RE007 Vpr strain; 360,000 compounds, 0.21% hits; S. pombe RE007 Vpr strain, BacTiter-Glo ATP luminescence, 24 h; control for the full effect not named in the record; AID 651644; Potency, µM (top dose mostly 92.2 µM), inactives show at the top dose activity change, negative = less growth; active = well fitted falling curve with a large enough effect; inconclusive = small, poorly fitted or top-dose-only effect; inactive = no such curve, though single readings can be large or run the other way;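 note: nearly all actives have a fitted effect of over 50% in size; the assay follows cell death caused by Vpr and the record does not say whether a fall means rescue or toxicity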
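Fission yeast RE007 carrying one integrated HIV-1 vpr copy, seeded at OD 0.01 in PMG+AL medium with 23 nL pinned compound. Grown 24 h at 30 degrees; viability read by BacTiter-Glo luminescence after 5 min.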
Active calls of the source: *; ? = inconclusive; & = joins results of further samples; [ ] = another dose, or the depositor's remark. % is set by controls: 0 for no effect and ±100 for the full control effect; potency is the fitted concentration of half-maximal effect. The list is partial, so the mix of outcomes need not match the whole.

Values in the order: RE007 growth inh | 2A StopGo
1. O=C1NC[C@H](CCCCN2C[C@H](Cc3ccc(O)cc3)N(CC3CCCCC3)C(=O)C2=O)N(CCc2ccccc2)C1=O
  -9% | -25%
2. COc1ccc(N2CCN(CCCn3cnc4c(SC)ncnc43)CC2)cc1
  -1% | ?
3. CC(C)(C)OC(=O)NCCc1onc(-c2ccc([N+](=O)[O-])cc2)c1C(=O)O
  13% | -7%
4. COCCNC(=O)c1cc2c(c(-c3cccc(C#CC(C)(C)O)c3)n1)[C@@H](CCO)N(S(=O)C(C)(C)C)C2 (stereo not given in full)
  6% | -1%
5. CC(=O)Nc1ccc(S(=O)(=O)N2c3ccc(F)cc3CCC2C)cc1 (stereo not given)
  9% | -9%
6. Cc1ccc(S(=O)(=O)N2C[C@H]3C(=O)C[C@@H](c4cccc5ccccc45)N(S(=O)(=O)c4ccc(C)cc4)[C@H]3C[C@H]2c2ccc(Cl)cc2)cc1
  9% | -24%
7. C/C(=N\NC(=O)CCC(=O)N/N=C(\C)c1ccc(C)o1)c1ccc(C)o1
  -2% | -12%
8. CCC1NC(=O)c2cccnc2-n2c1nc1ccc(C)cc1c2=O (stereo not given)
  -22% | 8%
9. CCCN1CCN(C(=O)c2ccc(S(=O)(=O)N(C)c3ccccc3OC)cc2)CC1
  2% | -24%
10. Cc1ccccc1Oc1ccc2c(c1)[C@@H]1C[C@H](N(C)C(=O)c3ccco3)[C@H]([C@H](C)O)C(=O)N1CC2
  10% | -25%
11. CCCCc1c(-c2cccc(OC)c2)ncn1CCc1ccccc1OC
  -29% | 25µM*
12. CC[C@H]1OC(=O)C[C@@H](O)[C@H](C)[C@@H](O[C@@H]2O[C@H](C)[C@@H](O[C@H]3C[C@@](C)(O)[C@@H](O)[C@H](C)O3)[C@H](N(C)C)[C@H]2O)[C@@H](CC=O)C[C@@H](C)C(=O)/C=C/C(C)=C/[C@@H]1CO[C@@H]1O[C@H](C)[C@@H](O)[C@@H](OC)[C@H]1OC
  2% | 0%&-9%
13. CC(=O)Nc1cccc(-c2ccnc3c2CC(C)(C(=O)Nc2ccc(F)c(Cl)c2)O3)c1 (stereo not given)
  2%[18.4 µM] | 0%
14. COC(=O)/C=C1\OCc2ccc(C)cc21
  -16% | 7%
15. OC[C@@H](O)[C@@H](O[C@@H]1O[C@H](CO)[C@H](O)[C@H](O)[C@H]1O)[C@H](O)[C@@H](O)CO
  6%[18.4 µM] | -21%
16. O=C(NC(c1ccc(Cl)cc1)c1cnccn1)C1CCN(CCOc2ccc(F)cc2)CC1 (stereo not given)
  1% | -17%
17. CCCCn1c2nc3ccccc3nc2c2c(=O)n(CC(C)C)cnc21
  2% | -5%
18. Cc1onc(-c2c(F)cccc2Cl)c1C(=O)OCC(=O)N(C)c1ccccc1
  -4% | 0%
19. Cc1ccc(Cc2c(-c3cccc(Cl)c3)nc3cc(C)c(Br)c(C)n23)cc1
  0% | -13%
20. COc1cccc(C(=O)N2CCC[C@@H]2C(=O)N2CCC[C@@H]2C(=O)NCc2ccccc2Cl)c1
  -4% | -1%
21. COc1ccc(-c2csc(C(O)c3cccnc3)n2)cn1 (stereo not given)
  -4%[18.4 µM] | 9%
22. C[C@@H]1O[C@@H](O[C@@H]2C=C3CCC4C(CC[C@]5(C)[C@@H](c6ccc(=O)oc6)CC[C@]45O)[C@@]3(C)CC2)[C@H](O)[C@H](O)[C@H]1O (stereo not given in full)
  -5%[18.4 µM] | ?
23. O=C(OCc1ccc([N+](=O)[O-])cc1)c1cc2ccccc2oc1=O
  8% | 24%
24. CCCNC(=O)C1(C)CCCN(C(=O)c2cccnc2Oc2ccccc2)C1 (stereo not given)
  9% | -1%
25. Clc1ccc(-c2nc3ccc(Cl)cn3c2Cc2ccccc2)cc1
  -18% | -10%
26. O=C(/C=C/[C@H]1O[C@@H](n2cnc3c(NC(=O)c4ccccc4)ncnc32)[C@H](O)[C@@H]1O)NCCc1ccc(F)cc1
  2% | -11%
27. O=C(NCc1ccccc1)c1ccc(CS(=O)Cc2cccc(Cl)c2)o1 (stereo not given)
  1% | -6%
28. CC(C)N1CC2(CC(c3ccccc3C(F)(F)F)=NO2)CN1C(=O)c1ccco1 (stereo not given)
  1% | -29%
29. Nc1c(-c2ccc(F)cc2)nc2ncccn12
  4% | -6%
30. COc1ccc(Cc2nnc(NC(=O)CS(=O)(=O)Cc3ccccc3)s2)cc1
  6% | -18%

Part of the list above in order of molecular weight, low to high:
Values in the order: RE007 growth inh | 2A StopGo
21. COc1ccc(-c2csc(C(O)c3cccnc3)n2)cn1 (stereo not given)
  -4%[18.4 µM] | 9%
17. CCCCn1c2nc3ccccc3nc2c2c(=O)n(CC(C)C)cnc21
  2% | -5%
9. CCCN1CCN(C(=O)c2ccc(S(=O)(=O)N(C)c3ccccc3OC)cc2)CC1
  2% | -24%

Record cards (already shown). Screens in order: RE007 growth inh | 2A StopGo
O=C(NC(c1ccc(Cl)cc1)c1cnccn1)C1CCN(CCOc2ccc(F)cc2)CC1 (stereo not given) is listed with 1% | -17%
O=C(/C=C/[C@H]1O[C@@H](n2cnc3c(NC(=O)c4ccccc4)ncnc32)[C@H](O)[C@@H]1O)NCCc1ccc(F)cc1 is listed with 2% | -11%

More structures follow:
Values in the order: RE007 growth inh | 2A StopGo
31. CC(C)(C)NC(=S)N1Cc2ccccc2-n2nncc2C1
  23% | -14%
32. CCC(c1nnnn1-c1ccc2c(c1)OCCO2)N1CCN(C(=O)c2ccco2)CC1 (stereo not given)
  1% | -13%
33. CCOC(=O)c1cc(-c2sc(NC(=O)c3ccccc3)nc2C)n(CCO)n1
  -14% | 0%
34. CC(=O)N(C)[C@H]1C[C@@H](c2ccccc2)N(C(C)=O)C[C@H]1CO
  8% | -1%
35. COc1ccc(-c2nc3ccc(C)cn3c2Cc2ccsc2)cc1OC
  ? | -2%
36. COC(=O)C1(C(=O)OC)CCCCN(S(=O)(=O)c2ccc(C)cc2)CCC1
  13% | ?
37. CC(C)(C)C(=O)c1c(N)[nH]c(C(=O)c2ccccc2)c1-c1c(F)cccc1F
  9% | -29%
38. CCC(c1nc2ccccc2[nH]1)N(CCCn1ccnc1)C(=O)c1ccc(C(F)(F)F)cc1 (stereo not given)
  ? | -16%
39. CCCNC(=O)C1(C)CCN(C(=O)Cc2ccc3ccccc3c2)C1 (stereo not given)
  -12%[18.4 µM] | -24%
40. Cc1ccc(CNCCCn2cnc(C(=O)Nc3ccc(C)c(C)c3)n2)o1
  -5% | -10%
41. CCC(=O)N1Cc2cc(C(=O)NCC(F)(F)F)nc(-c3cccc(-c4cncnc4)c3)c2[C@@H]1CCO
  11% | -23%
42. O=C(NCCNCCO)C1(C(F)(F)F)C/C(=C\CCO)CCCO1 (stereo not given)
  13% | 0%
43. Cc1ccc(F)c(S(=O)(=O)NC(=O)C2(C)CCN2C(=O)CCC2CCCC2)c1 (stereo not given)
  12% | -17%
44. CC(C)(C)c1ccc(CC(=O)N2CCC2(C)C(=O)Nc2cnc3ccccc3c2)cc1 (stereo not given)
  -17%[18.4 µM] | 20µM*
45. COc1ccc(C(O)C(O)(C(=O)OC(C)C)c2ccc(C)cc2)cc1 (stereo not given)
  2% | 23%
46. Cc1ccc(S(=O)(=O)N2CCN(C(=O)c3cc(C4CC4)nn3-c3ccccc3)CC2)cc1
  -13% | ?
47. O=C(NCc1ccco1)c1ccc2c(c1)S(=O)(=O)c1ccccc1C2=O
  5% | 29%
48. COCCNC(=O)C1(C)CCCN(C(=O)c2ccc(F)c(Cl)c2)C1 (stereo not given)
  5%[18.4 µM] | 5%
49. COc1ccc(Cc2c(-c3ccc(C#N)cc3)nc3c4ccccc4ccn23)c(C)c1
  -10% | -9%
50. COCC1CCN(C(=O)c2ccc3oc(C(C)C)nc3c2)C1 (stereo not given)
  6% | 41%[activator]
51. C[C@@H](CO)NC(=O)c1nc[nH]c1C(=O)N[C@H](C)c1ccccc1
  -20% | -15%
52. COc1ccc(-c2cn(CC[C@@H]3CC[C@H](NC(=O)Cc4ccccn4)[C@@H](CO)O3)nn2)cc1
  -18% | 0%
53. CC(C)NC(=O)Nc1nnc([C@H]2C[C@H](O)[C@@H](CO)O2)s1
  3% | -11%
54. NS(=O)(=O)c1ccc(S(=O)(=O)N2CCCC(c3ccccc3)C2)cc1 (stereo not given)
  -1% | ?
55. COc1cccc(C2=NN(C(=O)C3CC3)C(O)(C(F)(F)F)C2)c1 (stereo not given)
  -14% | -23%
56. CCCCN1CC(N2CCN(C)CC2)CS1(=O)=O (stereo not given)
  -15% | -30%
57. OCC[C@H]1C[C@@H](O)[C@H](O)[C@]2(CCCO2)O1
  2% | -6%
58. CCOC(=O)C1=CCN(S(=O)(=O)c2ccccc2F)C1c1ccc(C)cc1 (stereo not given)
  10% | -21%
59. O=C(CC1CCCC1)N1CCN(S(=O)(=O)c2cccc(Br)c2)CC1
  0% | -27%
60. CCc1nc2ccc(C(=O)N3CCN(C)CC3)cn2c1N(C)CCC(C)C
  -11%[18.4 µM] | -14%

A few values from the results shown:
RE007 growth inh, compound 45 → 2%
RE007 growth inh, compound 4 → 6%
2A StopGo, compound 40 → -10%
RE007 growth inh, compound 5 → 9%

Later entries
Values in the order: RE007 growth inh | 2A StopGo
61. O=S1(=O)CC(N2CCN(CC3CC3)CC2)CN1C1CCCCC1 (stereo not given)
  -25% | -15%
62. CCC1(c2cccc(O)c2)CCCCN(C)C1 (stereo not given)
  -1%[18.4 µM] | -15%
63. OC(c1ccccc1)(c1ccccc1)C1CCN(CCCOc2ccc(F)cc2)CC1
  -16% | -20%
64. CSC[C@H]1CN(c2ccc(Br)cc2)C(=O)[C@@H]1CC(=O)Nc1ccccc1
  3% | -2%
65. COc1cccc(C(=O)NCCCNc2nc3cc(C)cc(C)c3cc2C#N)c1
  -6% | ?
66. O=C(CCCn1c(=S)[nH]c2ccsc2c1=O)Nc1ccc(F)cc1
  4% | ?
67. CC1(C(=O)NS(=O)(=O)c2ccc(Cl)cc2)CCN1C(=O)COc1ccc(Cl)cc1 (stereo not given)
  8% | -7%
68. C[C@@H]1ON(C)[C@H]2C[C@H]3c4[nH]c5ccccc5c4CCN3C(=O)[C@@H]12
  3% | -14%
69. O=C(NCC(=O)N1CCCCCCC1)c1ccc(Cl)c(Cl)c1
  -12% | 37%[activator]
70. Cc1ccc(Cc2c(-c3ccc(F)cc3)nc3cc(C)ccn23)cc1
  -18% | 0%
71. CC1(C(=O)NCc2cccc3ccccc23)CCN1Cc1ccc(OC(F)(F)F)cc1 (stereo not given)
  4% | 0%
72. Cc1ccc(-n2c(=S)[nH]c3ccccc3c2=O)cc1C
  19% | -12%
73. CN(CCC#N)c1ccc(C=C(C#N)c2ccc(Br)cc2)cc1
  6% | 7%
74. CCOC(=O)C1=C(C)N(CCCC(=O)O)C(=O)NC1c1ccccc1OS(=O)(=O)c1ccccc1[N+](=O)[O-] (stereo not given)
  17% | -11%
75. CNc1ncnc2c1ncn2[C@H]1CN(Cc2ccc(OC)cc2)C[C@@H](CO)O1
  2% | -8%
76. CCN(CC(=O)Nc1ccc(NC(C)=O)cc1)C(=O)c1cccc(N2C(=O)c3ccccc3C2=O)c1
  18% | -20%
77. CC1(C(=O)NS(=O)(=O)C2CC2)CCN(C(=O)c2c(F)cccc2F)C1 (stereo not given)
  9% | -15%
78. O=C(NC1CCCCCCC1)c1c(Cl)cccc1Cl
  6% | -3%
79. CCC(=O)N(C)C[C@H]1Oc2cc(Br)ccc2S(=O)(=O)N([C@@H](C)CO)C[C@H]1C
  5% | 23%
80. COC(=O)[C@@H]1ON2OCC(C)=C3CCCC[C@@]32[C@H]1C(=O)OC
  0% | -2%
81. COCCNC(=O)C1Nc2ccc(C(F)(F)F)cc2C2C=CCC12 (stereo not given)
  -8% | -14%
82. CS(=O)(=O)c1ccc(S(=O)(=O)N2CCN(C(=O)C(O)c3ccccc3)CC2)cc1 (stereo not given)
  -5% | -14%
83. Cc1ccc(S(=O)(=O)N2CCCC(C(=O)NCCc3ccc(Cl)cc3)C2)cc1 (stereo not given)
  3% | -16%
84. CCCCNC(=O)C1C(c2ccc(C(F)(F)F)cc2)=Nc2ccccc2N1C(=O)c1cccc2ccccc12 (stereo not given)
  -17% | -8%
85. O=C(/C=C/[C@H]1O[C@@H](n2cnc3c(NC(=O)c4ccccc4)ncnc32)[C@H](O)[C@@H]1O)NCc1cccc2ccccc12
  -8% | 0%
86. COc1ccc(C(C)(O)c2nc(-c3ccc(C)c(C)c3)cs2)cc1 (stereo not given)
  ? | -20%
87. C=C(CCO)C1=CCN(S(=O)(=O)C(C)(C)C)[C@@H]1CCO
  -4% | -20%
88. Cc1nc(Cn2c3ccc(NC(=S)NC4CCCCC4)cc3c(=O)n2C)cs1
  -1% | -21%
89. CCc1nc2ccc(C(=O)NCCOc3ccc(OC)cc3)cn2c1N(CCC(C)C)CCN(C)C
  3% | ?
90. CCCCC[C@H]1CCCCC[C@H](O)C[C@@H](O)[C@H](O)/C=C/C(=O)O1
  7% | ?
91. O=C(CNC(=O)N1CC(=O)Nc2ccccc21)NCc1ccc(F)cc1
  -3% | 0%
92. CC(=O)C1=CCC(c2ccccc2)N(S(C)(=O)=O)C1 (stereo not given)
  -6% | -15%
93. CC1(C)CN(c2ccc(Br)cc2)C(=O)[C@H]1CC(=O)Nc1ccccc1
  -8% | ?
